Screening results deposited in PubChem by ICCB-Longwood Screening Facility, Harvard Medical School.
Anaer choline gr: choline-fed anaerobic bacterial growth inhibition; Gram-negative bacterium anaerobic choline minimal medium, absorbance growth; stronger effect = lower value; many inactives read as strong as hits in the columns shown; calls only; hit rate 0.2% among 55,000;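 active means growth z-score on choline under -2 at 7 or 20 h with little or no fall on glycerol, limits in tiers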;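 further: stock transfer was 300 nL into about 50 µL; the organism is E. coli; final concentration not given here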
Anaer choline gr early: recorded beside Anaer choline gr, whose call it bears; z-score; measured here: choline growth z-score, timepoint 1;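 score of optical density at 7 h as mean of two plates; lower means less growth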
* = called active by the depositor; i = inactive; & = joins results of further samples. An excerpt; rates above refer to the full screens.

Each structure is followed by: Anaer choline gr, Anaer choline gr early
- CC1CN(S(=O)(=O)c2ccc3c(c2)C(=O)Nc2ccccc2O3)CC(C)O1 (stereo unspecified)
    i, -0.49
- CCCCCCCCCC(=O)N[C@H](CN1CCOCC1)[C@H](O)c1ccccc1
    i, 0.01
- CC1=CN2C(=NC(=O)CC2(C)C(=O)O)C=C1 (stereo unspecified)
    i, -0.38
- CCOc1ccc2ncc(C(=O)c3ccccc3)c(N3CCOCC3)c2c1
    i, -0.62
- CCOC(=O)C1CCN(c2cc(-c3nc(-c4ccc(C)cc4)no3)c3ccccc3n2)CC1
    i, 2.12
- O=C(c1ccc(N2CCNCC2)c(NS(=O)(=O)c2ccc(Br)cc2)c1)N1CCCC1
    i, 0.11
- O=C(NCc1csc(-c2cccs2)n1)[C@H]1CSCN1C(=O)c1ccco1
    i, -1.44
- O=C(NCCN1CCOCC1)C1CCN(c2nc3ccccc3n(Cc3ccccc3)c2=O)CC1
    i, -1.74
- CCc1ccc(N2C(=O)CN(C(C)CC)[C@H]3CS(=O)(=O)C[C@H]32)cc1 (stereo partly specified)
    i, 0.77
- Cc1ccc(NC(=O)CC2CCN(C(=O)c3cn(-c4ccccc4)nc3-c3ccccc3)CC2)cc1
    i, 0.8

Each structure is followed by: Anaer choline gr, Anaer choline gr early
- CC(C)NC(=O)Cc1csc(NC(=O)C2CC2)n1
    i, -0.55
- COc1ccc(-c2cncc(C(=O)NCc3ccc(Br)cc3)c2)cc1
    i, 0.43
- CCOc1ccc(N(CC(=O)N2CCN(c3ccccc3OC)CC2)S(C)(=O)=O)cc1
    i, 0.24
- Cc1ccc(-c2noc(C3CCCN3C(=O)C(NS(=O)(=O)c3ccc(C)cc3)C(C)C)n2)cc1 (stereo unspecified)
    i, 1.04
- CCN(CC)C(=O)CN1C(=O)COc2ccc(S(=O)(=O)N3CCOCC3)cc21
    i, 1.43
- CC1CCN(C(=O)Cc2csc(NC(=O)c3ccccc3)n2)CC1
    i, -0.82
- CN1CCN(c2ncncc2N2CCC(C(=O)NC3CCCCC3)CC2)CC1
    i, -0.72
- CCOC(=O)c1cc(C)nc2c1c(=O)n(Cc1nc(-c3ccc(C)cc3)oc1C)c(=O)n2C
    i, 0.28
- O=C(Cn1nc2c3sc(N4CCCCC4)nc3ncn2c1=O)Nc1ccc(Cl)cc1F
    i, -0.16
- O=C(NC1CCN(Cc2ccccc2)CC1)c1ccc2c(=O)n3c(nc2c1)CCCC3
    i, -1.17

Each structure is followed by: Anaer choline gr, Anaer choline gr early
- CC1CCN(S(=O)(=O)c2ccc3c(ccn3CCC(=O)NC3CCCCC3)c2)CC1
    i, -0.38
- COc1ccc(NC(=O)c2nnc(CCCC(=O)N3CCN(c4ccccn4)CC3)s2)cc1
    i, 0.03
- COC(=O)c1ccc(Cl)cc1NC(=O)N1Cc2cccn2-c2ccccc21
    i, 0.66
- Cc1nn2c(CNS(=O)(=O)c3cn(C)c(C)n3)c(C)nc2s1
    i, -0.54
- COC(=O)c1c(C)nn(-c2cccc(C)c2)c1N
    i, 0.54
- CCc1cccc(N2C(=O)c3ccncc3C2=O)c1
    i, -1.01
- CCOc1cc(CN2CCCC2c2cc(CC)no2)ccc1OC(C)C (stereo unspecified)
    i, 0.22
- CC(=O)SCC[N+](C)(C)C
    i, 0.05
- COc1ccccc1N1CCN(C(=O)c2cc(C3CC3)[nH]n2)CC1
    i, -0.18
- Cc1nn(-c2ccc(F)cc2)c2sc(C(=O)OCCOc3ccccc3)cc12
    i, 0.84

Each structure is followed by: Anaer choline gr, Anaer choline gr early
- CCCc1nc(CNC(=O)C2CSCN2C(=O)c2ccc(C(C)(C)C)cc2)cs1 (stereo unspecified)
    i, 0.28
- COc1ccc(N2C(=O)CCS2(=O)=O)cc1S(=O)(=O)Nc1ccccc1
    i, -0.57
- O=C1Nc2ccccc2C1Cc1cccc(Cl)c1 (stereo unspecified)
    i, -0.11
- CC(C)OCCCn1c(=O)c2ccccc2n2c(=O)n(CC(=O)Nc3cc(F)ccc3F)nc12
    i, -0.69
- CNC(=O)N1CCCC(c2cccc(C(=O)NCCN3CCCCC3C)c2)C1 (stereo unspecified)
    i, -0.89
- COCCn1c(CN2CCN(S(=O)(=O)c3ccc(Cl)cc3)CC2)nc2ccccc2c1=O
    i, 0.15
- Cc1c(C(=O)NCC2(N3CCN(C)CC3)CCCCC2)oc2ccc(Cl)cc12
    i, -2.17
- CCOc1ccc2c(c1)cc(C(=O)NC1CCCC1)n2C
    i, 0.45
- COc1ccccc1-c1noc(-c2nn(-c3cccc(F)c3)ccc2=O)n1
    i, -0.59
- O=S(=O)(Nc1cc(F)cc(F)c1)c1ccc(-c2nnc(C3CCC3)o2)o1
    i, -0.45

Each structure is followed by: Anaer choline gr, Anaer choline gr early
- Cn1c(=O)c(=O)n(C)c2cc(N3CCCCC3)c(NC(=O)C(C)(C)C)cc21
    i, -0.8
- CCn1nc(-c2ccccc2)c(-c2ccccc2)c(C(=O)NCC2CCCO2)c1=O (stereo unspecified)
    i, -0.65
- CC(=O)Nc1ccc(-c2cc(C(=O)NCC3CCCO3)c3cc(C)ccc3n2)cc1 (stereo unspecified)
    i, -0.86
- CCCCNc1ncnc2c1cnn2-c1ccc(C)cc1C
    i, 0.82
- Brc1ccc(Nc2c3c(nc4ncnn24)CCC3)cc1
    i, -1.01
- CCN1C(SCc2ccc(N3CCCC3=O)cc2)=NS(=O)(=O)c2ccccc21
    i, 0.65
- Cc1ccc(Cc2nc(CCNS(=O)(=O)c3ccc(C)cc3C)n[nH]2)cc1
    i, -0.5
- Cc1ccc2nc3c(cc2c1)CCN3S(=O)(=O)c1ccc(Cl)cc1
    i, 0.12
- CCOC(=O)c1c(C)[nH]c(C)c1S(=O)(=O)N1CCC(C(=O)Nc2ccccc2C)CC1
    i, -0.46
- CCOC(=O)c1ccc(Nc2nc3ccc(C)cc3n3cnnc23)cc1
    i, 0.91

Each structure is followed by: Anaer choline gr, Anaer choline gr early
- Cc1cc(C)c(S(=O)(=O)Nc2cc(C(=O)O)ccc2N2CCN(C)CC2)c(C)c1
    i, 0.03
- Cc1ccc(-c2csc3ncn(CC4CCCO4)c(=O)c23)cc1 (stereo unspecified)
    i, -0.23
- Cc1ccccc1C(=O)NCCc1sc2nc(-c3ccc(F)cc3)nn2c1C
    i, 0.51
- CC1CN(c2ccc(Cl)cc2)c2nc3c(c(=O)n(CC(=O)O)c(=O)n3C)n2C1 (stereo unspecified)
    i, -0.8
- O=C(O)c1cnn2c(C(F)F)cc(C3CC3)nc12
    i, 0.85
- Cc1nc(-c2csc(S(=O)(=O)NC(C)C)c2)sc1C(=O)N1CCCC1
    i, -0.97
- Cc1ccc2[nH]c(=O)c(-c3noc(CCC(=O)N(C)C)n3)cc2c1
    i, -0.3
- O=C(Nc1cccc(Cl)c1)c1nnc(C2CCCN(C(=O)c3ccccc3F)C2)s1 (stereo unspecified)
    i, 0.37
- COC(=O)c1sccc1NC(=O)CSc1nccn2nc(-c3ccc(C)cc3)cc12
    i, 0.29
- O=C(CCC(=O)N1CCc2cc(S(=O)(=O)N3CCCCC3)ccc21)N1CCCC1
    i, 0.09

Each structure is followed by: Anaer choline gr, Anaer choline gr early
- Cc1ccc(-c2nc(-c3ccc4c(c3)[nH]c(=O)c(=O)n4C(C)C)no2)c(C)c1
    i, 0.96
- C=CCn1c(SCC(=O)N2c3ccccc3C(C)(c3ccccc3)CC2(C)C)nnc1-c1ccncc1 (stereo unspecified)
    i, 1.03
- COC(=O)c1ncn2c1C(=O)N(c1ccc(OC)c(OC)c1)C(C)(C(=O)NC1CCCC1)C2 (stereo unspecified)
    i, 1.2
- COc1ccc(NS(=O)(=O)c2cc(-c3cc(C(F)(F)F)on3)sc2C)cc1OC
    i, -0.29
- O=C(c1coc(-c2ccccc2)n1)N1CCCN(Cc2noc(-c3ccccc3)n2)CC1
    i, 0.08
- CCOc1ccccc1NC(=O)C1CCN(S(=O)(=O)c2cc(-c3noc(C)n3)sc2C)CC1
    i, 0.75
- CCOC(=O)C1CCN(c2c(N3CCC(C(=O)OCC)CC3)c(=O)c2=O)CC1
    i, 0.72
- CCn1cnc(S(=O)(=O)N2CCCC(C(=O)N3CCN(C)CC3)C2)c1 (stereo unspecified)
    i, -0.82
- CC(C)NC(=O)c1ccc2c(c1)CCN2S(C)(=O)=O
    i, 0.22
- CCCn1nnc(NCc2ccc(-c3cccc(Cl)c3C)o2)n1
    i, -0.06

Single records (already shown). Values in the order: Anaer choline gr	Anaer choline gr early
Profile of COC(=O)c1c(C)nn(-c2cccc(C)c2)c1N : i	0.54
Profile of COc1ccc(NC(=O)c2nnc(CCCC(=O)N3CCN(c4ccccn4)CC3)s2)cc1 : i	0.03
Profile of CC1CCN(S(=O)(=O)c2ccc3c(ccn3CCC(=O)NC3CCCCC3)c2)CC1 : i	-0.38
Profile of Cc1ccc(-c2csc3ncn(CC4CCCO4)c(=O)c23)cc1 (stereo unspecified) : i	-0.23

Next section.
Each structure is followed by: Anaer choline gr, Anaer choline gr early
- COC(=O)C1=C(C)NC(C)=C(C(=O)OC)C1c1ccccc1[N+](=O)[O-]
    i, -0.89&0.43&-0.47&0.24&-1.16&0
- Cc1nc(OCC(=O)N2CCOCC2)c2c(-c3ccccc3)noc2n1
    i, -0.24
- Cc1ccc(C(=O)Nc2ccc(-n3cccc(C(=O)NCCC(C)C)c3=O)cc2)cc1
    i, -0.26
- O=C(NCc1noc(-c2ccco2)n1)c1coc(C2CC2)n1
    i, -0.11
- Cc1ccc(CNC(=O)c2ccc(CN3CCCn4nc(C)cc43)cc2)cc1
    i, -0.05
- CN(c1ncccc1CNc1nc(Nc2ccc3c(c2)CC(=O)N3)ncc1C(F)(F)F)S(C)(=O)=O
    i, 0.31&0.1
- CCCS(=O)(=O)NCc1ccc2c(c1)N(C(=O)c1ccccc1)CC2
    i, 0.38
- CCOC(=O)CC1=CC(SCc2ccc(C)cc2)=Nc2ccccc2N1
    i, 1.4
- CC(C)C1C(=O)NC(CCCN=C(N)N)C(=O)NCC(=O)NC(CC(=O)O)C(=O)NC(Cc2ccccc2)C(=O)N1C (stereo unspecified)
    i, 0.43
- O=C(CN1c2ccc(Br)cc2-c2ccccc2S1(=O)=O)NCCC1=CCCCC1
    i, 1.48

Each structure is followed by: Anaer choline gr, Anaer choline gr early
- CC1=C(CC(=O)O)c2cc(F)ccc2/C1=C\c1ccc(S(C)=O)cc1 (stereo unspecified)
    i, 0.22&0.47
- CCOC(=O)c1c(C)[nH]c(CN(Cc2ccccc2)C(=O)Nc2ccccc2OCC)c1C
    i, 0.77
- O=C(CCCn1c(=O)c2cccn2c2ccc(F)cc21)NCc1cccnc1
    i, 0.35
- Cc1cc(F)ccc1NS(=O)(=O)c1cn(C)c(C)n1
    i, -0.69
- Cc1nn(-c2ccc(Cl)nn2)c(C)c1Cl
    i, 0.2
- CN(C)S(=O)(=O)c1ccc(-c2noc(C(=O)N3CCCC3)n2)cc1
    i, 0.06
- Cc1ccc(NC(=O)c2sc3ncn(CC(=O)N4CCN(c5ccccn5)CC4)c(=O)c3c2C)cc1
    i, 0.83
- Cc1cccc(-c2nc(CNC(=O)C(C)(C)C)no2)c1
    i, 0.63
- COc1ccc(OC)c(CC2C(=O)Nc3ccccc32)c1 (stereo unspecified)
    i, 0.39
- O=C(Nc1cc(-c2cccs2)no1)C1CC1
    i, -0.01

Each structure is followed by: Anaer choline gr, Anaer choline gr early
- Cc1ccc(COC2CN(C(=O)C3CCC3)C2)cc1
    i, 0.41
- Cc1sc(-c2nc(C(C)C)cs2)cc1S(=O)(=O)NCc1ccc2c(c1)OCO2
    i, -0.22
- Cc1cc(C)cc(S(=O)(=O)Nc2cccc(-c3ccc(N4CCCCC4)nn3)c2)c1
    i, 1.66
- CCC(=O)Nc1nc(-c2ccc3c(c2)N(C)C(=O)CO3)cs1
    i, -0.88
- O=C(O)CC1C(=O)NCCN1C1Cc2ccccc2C1 (stereo unspecified)
    i, 0.3
- COc1ccc(S(=O)(=O)N2CCN=C2N2CCN(c3ccccc3Cl)CC2)cc1OC
    i, -0.72
- C=CCNC(=O)c1ccc(Sc2ccc(NS(=O)(=O)c3ccc(C)c(C)c3)cc2)nc1
    i, -0.91
- CCn1c(CN(c2ccc(F)cc2)S(C)(=O)=O)nnc1SC(C)C(=O)Nc1nccs1 (stereo unspecified)
    i, 0.37
- O=C(Cn1c(=O)n2nc(-c3ccccc3)nc2c2ccccc21)c1cccc(Cl)c1
    i, 0.13
- CCn1nc(C)c2c1c(=O)n(CCc1ccccc1)c(=O)n2CC(=O)NCC1CCCO1 (stereo unspecified)
    i, -0.12

Each structure is followed by: Anaer choline gr, Anaer choline gr early
- Cc1ccc(-c2noc(-c3cccn(CC(=O)Nc4ccc5c(c4)OCO5)c3=O)n2)cc1
    i, 1.05
- CCc1c(C)nc2ncnn2c1Nc1cccc(OC)c1
    i, -0.49
- Cc1cc(C)c2c(C)c(C(=O)NCC3(N4CCN(C)CC4)CCCCC3)oc2c1
    i, -0.66
- CCOC(=O)c1c(C)oc2ncnc(NC(C)CC)c12 (stereo unspecified)
    i, -0.4
- COc1ccc(-c2noc(CSc3ccc(-c4ccc(F)cc4)nn3)n2)cc1OC
    i, 0.1
- CC(C)C12CN3CC(C(C)C)(CN(C1)C3c1ccc(Br)cc1)C2=O (stereo unspecified)
    i, 0.84
- Cc1c(CNCCc2ccc(S(N)(=O)=O)cc2)c(C(=O)O)c(C)n1Cc1ccc(Cl)cc1
    i, -1.51
- Cc1cccc(-c2cc(N3CCN(S(=O)(=O)c4ccc(Br)cc4)CC3)ncn2)c1
    i, -0.09
- Cc1ccc(NS(=O)(=O)c2cc(-c3cc(C(F)(F)F)on3)sc2C)c(Cl)c1
    i, 0.47
- COC(=O)N[C@H](C(=O)N[C@@H](Cc1ccccc1)[C@@H](O)CN(Cc1ccc(-c2ccccn2)cc1)NC(=O)[C@@H](NC(=O)OC)C(C)(C)C)C(C)(C)C
    i, -1.43
